# Screens (PubChem)
# Calb biofilm kill: clotrimazole potentiators killing C. albicans biofilm, primary screen, 4-compound mixtures; C. albicans biofilm persisters + clotrimazole, fluorescence viability; primary screen in compound mixtures of four per well; inhibition, % at 7.6 µM; 120,000 compounds, 0.02% hits; AID 1242, 2008;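 active means inhibition above 30.3% in the primary screen of four-compound pools, then above 30% when the compound was retested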;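 further: compounds exposed to preformed 24 h biofilms for 48 h; the number belongs to the whole pool; some results filed as inactive read as strong as hits; inactives centre near 12; 0% = biofilm with clotrimazole alone and 100% = kill control; retested singly at about 60 µM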
#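 Assay system: C. albicans biofilms / Medium: RPMI/MOPS medium, pH 7.0 / Schedule: biofilm formation 24 h, compound exposure 48 h, 37 °C / Measured by: Alamar Blue fluorescence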
# An asterisk follows results filed as active.
no. | Compound | Calb biofilm kill
1 | COC(=O)c1ccccc1N=Nc1c(N)[nH][nH]c1=O | 14
2 | CCC(=O)Nc1cccc(NC(=O)c2ccc(Br)cc2)c1 | 15
3 | O=P(c1ccccc1)(c1ccccc1)C(c1ccccn1)P(=O)(c1ccccc1)c1ccccc1 | 18
4 | CCOc1ccc(NC2=C(OC)C(=O)c3ccccc3C2=O)cc1 | 13
5 | Cn1cccc1C(=O)OCC(=O)NC1CCS(=O)(=O)C1 (stereo unspecified) | -14
6 | COc1ccc(C2CC(c3ccccc3)=NN2C(=O)CSc2ncn[nH]2)cc1 (stereo unspecified) | 0
7 | Cc1cccc(C)c1OCC(O)CN1CCN(c2ccccn2)CC1 (stereo unspecified) | 1
8 | O=C1CN(c2nc(-c3ccccc3)c3ccccc3n2)c2ccccc2N1 | 15
9 | N#CCC(=O)Nc1ccc(C(=O)NCc2ccccn2)cc1 | 4
10 | COc1ccc(C(=O)Oc2ccc3c(C)cc(=O)oc3c2C(C)=O)cc1 | 12
11 | O=C(Nc1cccc(S(=O)(=O)Nc2ccc(Cl)cc2)c1)c1ccc(Cl)nc1 | -6
12 | Cc1nn(-c2nnc(NC3CCCCC3)nn2)c(C)c1Br | 6
13 | CCOC(=O)Cc1cnc(NC(=O)CSc2nc3ncnc(N)c3[nH]2)s1 | 14
14 | O=c1ccnc(Sc2ncccc2[N+](=O)[O-])[nH]1 | 10
15 | CCNC(=S)Nc1nc2c(cc1C(=O)OCC)CCCC2 | 8

# Results in sequence from above:
# Calb biofilm kill, nos. 7 to 10, in order: 1, 15, 4, 12

# Remaining list, next part.
no. | Compound | Calb biofilm kill
16 | COc1ccc(C(=O)Nc2cnn(Cc3ccc(Cl)cc3)c2)cc1OC | -18
17 | O=S(=O)(NCc1csc(-c2cccs2)n1)c1ccccc1 | 26
18 | CC(=Nc1ccccc1)C1=C(O)CC(C)(C)CC1=O | 14
19 | COc1ccc(-c2csc(NC(=S)NC(=O)/C=C/c3ccco3)n2)cc1Br | 18
20 | COc1ccc2[nH]c(=O)c(CN(C(=O)c3cccnc3)c3ccc(C)c(C)c3)cc2c1 | 17
21 | O=C(CSc1ccccn1)Nc1ccc2c(c1)OCO2 | 22
22 | COc1ccc([N+](=O)[O-])cc1C(=O)Nc1ccc(OCC(=O)N2CCOCC2)cc1 | 17
23 | CCc1ccc(NC(=S)N(Cc2cccnc2)Cc2ccco2)cc1 | 13
24 | CNS(=O)(=O)/C=C/c1ccccc1 | 6
25 | O=c1c2ccccc2[nH]c2ccccc12 | 5
26 | CCCCOC(=O)CCN1C(=O)/C(=C2\SC(=S)N(CCC(=O)OCCCC)C2=O)SC1=S | 3
27 | O=C(Nc1nc2ccccc2[nH]1)c1cccc(S(=O)(=O)N2CCOCC2)c1 | 6
28 | NC(=O)c1ccccc1OCC(=O)c1ccc(Cl)cc1 | 8
29 | CC1CC(=O)Nc2ccccc2N1C(=O)Nc1ccc(F)cc1F (stereo unspecified) | 7
30 | COC(=O)c1c(C)oc(C)c1S(=O)(=O)Nc1ccc(C(C)C)cc1 | 8

# The list continues:
no. | Compound | Calb biofilm kill
31 | Cc1cccc(C2Nc3ccccc3C(=O)N2NC(=O)c2ccc([N+](=O)[O-])cc2)n1 (stereo unspecified) | 6
32 | COC(=O)NC(=S)Nc1ccc(Oc2ccc(Cl)cc2Cl)c(Cl)c1 | 6
33 | Cc1cc(N2C(=O)C3CC=CC(C)C3C2=O)no1 (stereo unspecified) | 16
34 | CC1Oc2ccccc2N(CC(=O)NCc2ccccc2)C1=O (stereo unspecified) | 3
35 | O=C(CSc1ccc2c(c1)OCCO2)Nc1cccnc1Cl | 8
36 | CCOC(=O)N1CCN(CC(O)COc2c(C)cccc2C)CC1 (stereo unspecified) | -8
37 | CS(=O)(=O)c1ccc(C(=O)NCC2(N3CCCCC3)CCCCC2)cc1 | 16
38 | FC(F)(F)c1ccc(-c2csc(-c3ccno3)n2)cc1 | 12
39 | Cc1ccc(NC(=O)c2sc3nc(C)nc(N4CCN(c5ccccn5)CC4)c3c2C)c(C)c1 | -2
40 | COCCn1cnnc1SCC(=O)Nc1cc(OC)c([N+](=O)[O-])cc1C | 8
41 | O=[N+]([O-])c1ccc(N=Cc2ccc(Br)c([N+](=O)[O-])c2)cc1 | -8
42 | O=C(Cc1cccs1)N=Nc1c(O)[nH]c2ccc(Br)cc12 | 15
43 | O=C1CCCC2=C1C(c1ccncc1)n1c(nc3ccccc31)N2 (stereo unspecified) | 14
44 | Cc1ccccc1C(=O)c1cccn1CC(=O)NC(C)c1ccc2c(c1)OCCO2 (stereo unspecified) | 25
45 | Clc1ccc(C[n+]2cc(-c3ccccc3)n3c2CCC3)cc1Cl | -3

# Further entries:
no. | Compound | Calb biofilm kill
46 | C=CCn1c(=NC(=O)c2ccco2)sc2cc(C(=O)OC)ccc21 | 9
47 | O=C(NCCN1C(=O)S/C(=C\c2ccc(Cl)c(Cl)c2)C1=O)c1ccc2c(c1)C(=O)N(Cc1ccncc1)C2=O | 9
48 | O=C(CSc1nc2c(c(C(F)(F)F)n1)CCc1ccccc1-2)NCc1ccccc1 | 13
49 | O=C(CSCc1cccc(Br)c1)NC1CC1 | 7
50 | Cc1cnc(NC(=O)c2c(-c3ccccc3)noc2C)s1 | 18
51 | O=C(Nc1nccs1)c1ccc(N2C(=O)[C@@H]3[C@H](C2=O)[C@H]2C=C[C@@H]3C2)cc1 | 3
52 | Fc1cccc(Nc2ncnc3[nH]ncc23)c1 | 10
53 | O=c1ccc(C(F)(F)F)cn1Cc1cc(=O)n2ccsc2n1 | 4
54 | O=C(N/N=C/c1ccccn1)c1cc(C2CC2)[nH]n1 | 10
55 | CC(C)(C)NC(=O)CCc1ncc(C(F)(F)F)cc1Cl | 21
56 | O=C(O)c1cccc(S(=O)(=O)N(Cc2ccccc2)c2ccccc2)c1 | 20
57 | CCCCC(CC)C(=O)Nc1ccc(C)c(O)c1 (stereo unspecified) | 8
58 | O=C(CSc1nnc(Nc2ccccc2F)s1)Nc1cccc(S(=O)(=O)N2CCCCC2)c1 | 10
59 | COc1ccc(S(=O)(=O)N2CCc3ccccc32)cc1NC(C)=O | 12
60 | CCCCN(C)C(=O)c1cc2cc3cc(OC)ccc3nc2o1 | 17

# Part of the list above, set out differently.
50) Cc1cnc(NC(=O)c2c(-c3ccccc3)noc2C)s1
  Calb biofilm kill: 18
51) O=C(Nc1nccs1)c1ccc(N2C(=O)[C@@H]3[C@H](C2=O)[C@H]2C=C[C@@H]3C2)cc1
  Calb biofilm kill: 3
52) Fc1cccc(Nc2ncnc3[nH]ncc23)c1
  Calb biofilm kill: 10

# Later entries
item	Molecule	Calb biofilm kill
61	COc1ccc(N2C3=C(C(=O)CC(C)(C)C3)C(c3cnn(C)c3)C3=C2CC(C)(C)CC3=O)cc1	18
62	O=C(O)CCN1CCc2ccccc2C1c1cccs1 (stereo unspecified)	4
63	COc1cc(CC(NC(C)=O)C(=O)NC2CCN(C(=O)Nc3ccccc3Cl)CC2)cc(OC)c1 (stereo unspecified)	16
64	CN(C)CCCN(Cc1ccccc1)C(=S)Nc1ccc(SC(F)F)cc1	13
65	COC(=O)c1ccc2c(=O)n(-c3ccc(OC)cc3)c(=S)[nH]c2c1	23
66	CC(C)CCNC(=O)c1onc(CSc2ccncc2)c1C(=O)NCCC(C)C	17
67	COc1cccc(C(C(=O)NC2CCCC2)N(Cc2ccc(C)cc2)C(=O)c2ccco2)c1OC (stereo unspecified)	9
68	O=C(Nc1ccccc1N1CCCCC1)c1ccc(Cl)c([N+](=O)[O-])c1	3
69	CC(=O)Nc1ccc(S(=O)(=O)NCC(=O)OCc2ccccc2)cc1	10
70	Clc1ccc(Cn2c(CN3CCCC3)nc3ccccc32)cc1	8
71	Cc1ccc(-n2c(C)cc(C)c(C#N)c2=O)cc1C	10
72	Cc1c(C(=O)O/N=C(\N)c2ccccn2)cccc1[N+](=O)[O-]	30
73	O=C(O)C1CCN(C(=O)COc2ccc(Br)cc2)CC1	13
74	O=C(N/N=C/c1ccsc1)c1cc(-c2cccs2)nc2ccccc12	18
75	O=C(O)Cc1sc(-c2ccccc2Cl)nc1-c1ccccc1	-1

# Additional records follow.
item	Molecule	Calb biofilm kill
76	Cc1nn(-c2ccc(F)cc2)c(Cl)c1/C=N/NC(=O)c1cccc(S(=O)(=O)N2CCCC2)c1	7
77	O=C(Nc1ccccc1F)c1ccc([N+](=O)[O-])s1	2
78	COc1ccc(CNC(=O)CCN2C(=S)NC(C)(C)CC2C)cc1 (stereo unspecified)	5
79	CC(C)CN(CC(C)C)S(=O)(=O)N1CCC(C(=O)NCc2ccc3c(c2)OCO3)CC1	29
80	O=C(Nc1cccc(S(=O)(=O)NC2=NCCCCC2)c1)c1cc(-c2ccc(Cl)cc2)nc2ccccc12	21
81	CC(=O)CCC(=O)OCC(=O)c1ccc(C(F)(F)F)cc1	9
82	c1ccc(-c2nc3nc4ccccc4nc3n2CC2CCCO2)cc1 (stereo unspecified)	29
83	CCc1cc2c(SCC(=O)N(CC)c3c(N)n(Cc4ccccc4)c(=O)[nH]c3=O)ncnc2s1	20
84	COc1ccc(C(=O)c2oc3ccc(OC)cc3c2NC(C)=O)cc1	16
85	CCOC(=O)CCNC(=O)N1CCCC(CNS(=O)(=O)Cc2ccccc2)C1 (stereo unspecified)	20
86	N/C(=N/OC(=O)c1ccccc1Cl)c1nonc1N	16
87	COc1ccc(S(=O)(=O)N(C)C)cc1NC(=O)CSc1ncccn1	11
88	COc1cc(/C=C/C(=O)OCC(=O)Nc2ccc([N+](=O)[O-])cc2)ccc1O	6
89	CC(C)OC(=O)/C(=C/c1ccc(Br)cc1)NC(=O)c1ccco1	9
90	CC(=O)Nc1ccc(C(=O)N/N=C(\C)CC(=O)Nc2ccc(OCc3ccccc3)cc2)cc1	25

# The list goes on.
item	Molecule	Calb biofilm kill
91	COc1cc(NC(=S)NC2CC2)c(OC)cc1Cl	9
92	COc1ccc(C2/C=C\CN(C(=O)Nc3ccccc3-c3ccccc3)CC(=O)N2Cc2ccc(F)cc2)cc1 (stereo unspecified)	15
93	O=C(CNC(=O)C12CC3CC(CC(C3)C1)C2)N1CCN(S(=O)(=O)c2cccs2)CC1	12
94	CCC(C)n1nccc1NC(=O)C(C)Cl (stereo unspecified)	7
95	Cn1cccc1CC(=O)N/N=C/C=C/c1ccco1	14
96	Cc1ccccc1OCC(=O)Nc1cc(Cl)ccc1Oc1ccccc1	8
97	Cc1ccc(C(=O)Nc2sc(Cc3ccc4c(c3)OCO4)c(C)c2C(N)=O)cc1	10
98	Cc1ccc(NC(=O)Cc2csc(-c3ccccc3)n2)cc1F	12
99	COc1ccc(F)cc1C(=O)C1CCCN(C(=O)CSc2ccccn2)C1 (stereo unspecified)	9
100	O=C(N/N=C1\C/C(=N\NC(=O)c2ccncc2)c2ccccc21)c1ccncc1	10
101	O=C(C1CCN(Cc2ccccc2)CC1)N1CCN(C/C=C/c2ccccc2)CC1	12
102	Fc1ccc(NC(=S)NC23CN4CN(CN(C4)C2)C3)cc1	14
103	CCN1CCN(C(=O)c2ccc3c(c2)c(C)c(C)n3Cc2ccccc2)CC1	18
104	C/C(N)=C(/C#N)C(=O)CSc1nnc(C)n1-c1ccccc1	11
105	COc1ccc(OCC(=O)Nc2ccc(C)c(S(=O)(=O)N(C)C)c2)cc1	12
106	COc1ccc(NC(=S)N=Nc2c(O)[nH]c3ccccc23)cc1	34
107	O=C(O)CCSCCCN1C(=O)c2cccc3cccc(c23)C1=O	26
108	Nc1c(C(=O)C2CC2)sc2nc(-c3ccccc3)cc(C(F)(F)F)c12	7

# Some values from the list:
# compound 99 | Calb biofilm kill = 9
# compound 100 | Calb biofilm kill = 10
# compound 73 | Calb biofilm kill = 13

# In the list so far, 18 contain a Cl atom:
item	Molecule	Calb biofilm kill
11	O=C(Nc1cccc(S(=O)(=O)Nc2ccc(Cl)cc2)c1)c1ccc(Cl)nc1	-6
16	COc1ccc(C(=O)Nc2cnn(Cc3ccc(Cl)cc3)c2)cc1OC	-18
28	NC(=O)c1ccccc1OCC(=O)c1ccc(Cl)cc1	8
32	COC(=O)NC(=S)Nc1ccc(Oc2ccc(Cl)cc2Cl)c(Cl)c1	6
35	O=C(CSc1ccc2c(c1)OCCO2)Nc1cccnc1Cl	8
45	Clc1ccc(C[n+]2cc(-c3ccccc3)n3c2CCC3)cc1Cl	-3
47	O=C(NCCN1C(=O)S/C(=C\c2ccc(Cl)c(Cl)c2)C1=O)c1ccc2c(c1)C(=O)N(Cc1ccncc1)C2=O	9
55	CC(C)(C)NC(=O)CCc1ncc(C(F)(F)F)cc1Cl	21
63	COc1cc(CC(NC(C)=O)C(=O)NC2CCN(C(=O)Nc3ccccc3Cl)CC2)cc(OC)c1 (stereo unspecified)	16
68	O=C(Nc1ccccc1N1CCCCC1)c1ccc(Cl)c([N+](=O)[O-])c1	3
70	Clc1ccc(Cn2c(CN3CCCC3)nc3ccccc32)cc1	8
75	O=C(O)Cc1sc(-c2ccccc2Cl)nc1-c1ccccc1	-1
76	Cc1nn(-c2ccc(F)cc2)c(Cl)c1/C=N/NC(=O)c1cccc(S(=O)(=O)N2CCCC2)c1	7
80	O=C(Nc1cccc(S(=O)(=O)NC2=NCCCCC2)c1)c1cc(-c2ccc(Cl)cc2)nc2ccccc12	21
86	N/C(=N/OC(=O)c1ccccc1Cl)c1nonc1N	16
91	COc1cc(NC(=S)NC2CC2)c(OC)cc1Cl	9
94	CCC(C)n1nccc1NC(=O)C(C)Cl (stereo unspecified)	7
96	Cc1ccccc1OCC(=O)Nc1cc(Cl)ccc1Oc1ccccc1	8

# These rows are one share of the data. The share of hits here may be higher or lower than overall.
